Rango complex inh: qHTS Assay for Inhibitors of Rango (Ran-regulated importin-beta cargo) - Importin beta complex formation | Importin subunit beta-1 (Homo sapiens), Q14974 | Rango CFP/YFP FRET sensor + importin beta, 45 min | Potency, µM (highest dose often 92.2 µM), for the others: at the top dose inhibition of complex formation | 340,000 tested, 0.031% active | AID 540263, 2011; active = rising FRET ratio curve, often small or poorly fitted; inconclusive = mostly compound fluorescence or quenching in the first reads; inactive = flat curves in all reads;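 also: potency is read from the fitted curve at half-maximal effect; 0% = DMSO wells and 100% = buffer wells lacking importin beta; nearly all actives have a fitted effect of over 15% in size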
Target sequence (Q14974 whole entry, looked up): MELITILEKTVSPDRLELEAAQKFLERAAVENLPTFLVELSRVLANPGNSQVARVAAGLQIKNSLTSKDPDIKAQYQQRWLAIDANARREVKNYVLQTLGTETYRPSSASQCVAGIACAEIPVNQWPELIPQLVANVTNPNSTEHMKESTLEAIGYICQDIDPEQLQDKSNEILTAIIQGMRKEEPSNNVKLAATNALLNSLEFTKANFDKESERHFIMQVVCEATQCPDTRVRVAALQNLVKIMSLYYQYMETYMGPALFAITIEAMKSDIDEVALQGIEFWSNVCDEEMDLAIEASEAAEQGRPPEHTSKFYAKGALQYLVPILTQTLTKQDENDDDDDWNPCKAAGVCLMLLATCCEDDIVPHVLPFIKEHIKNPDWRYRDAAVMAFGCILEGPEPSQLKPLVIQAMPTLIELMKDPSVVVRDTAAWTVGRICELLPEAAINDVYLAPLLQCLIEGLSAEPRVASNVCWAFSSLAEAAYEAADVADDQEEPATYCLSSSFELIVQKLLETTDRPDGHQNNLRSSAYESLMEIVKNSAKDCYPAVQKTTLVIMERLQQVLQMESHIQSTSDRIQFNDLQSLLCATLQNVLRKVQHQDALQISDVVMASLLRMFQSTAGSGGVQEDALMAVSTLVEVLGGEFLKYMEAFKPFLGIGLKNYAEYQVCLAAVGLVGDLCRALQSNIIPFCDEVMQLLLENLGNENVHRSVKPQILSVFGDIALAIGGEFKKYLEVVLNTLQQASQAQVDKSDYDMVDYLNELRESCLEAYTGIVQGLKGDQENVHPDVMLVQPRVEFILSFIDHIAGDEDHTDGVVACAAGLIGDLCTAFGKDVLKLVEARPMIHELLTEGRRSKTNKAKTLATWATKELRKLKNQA
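FRET biosensor Rango (snurportin 1 IBB between N-terminal EYFP and C-terminal Cerulean), 50 nM in PBS/1 mM DTT/0.02% Tween-20/0.1% BSA, preincubated 5 min RT with compound; 0.125 microM importin beta added, 45 min RT, CFP/YFP FRET ratio read.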
miR-21 reporter: qHTS Assay for Modulators of miRNAs and/orActivators of miR-21; Potency, µM (titrated, usually from 38.3 µM), for inactives: top-dose reporter change, positive = more light; HeLa miR-21 FLuc reporter, luciferase, 48 h; 340,000 tested, under 10 active; AID 2288, 2010; active = well fitted rising curve with a large enough effect; inconclusive = small, poorly fitted or top-dose-only effect; inactive = no such curve, though single readings can be large or run the other way;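 also: % of control where 0% means no effect; miR-21 action dims this reporter so a rising signal means less miR-21 action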
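Luminescence from a firefly luciferase reporter carrying a miR-21 binding site downstream, stably expressed under a CMV promoter in HeLa cells that make miR-21 endogenously, reports miRNA modulation after 48 h compound exposure up to approximately 40uM final.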
Rango release inh: qHTS Assay for Inhibitors of RanGTP induced Rango (Ran-regulated importin-beta cargo) - Importin beta complex dissociation; Potency, µM (highest dose often 46.1 µM), for inactives: at the top dose activity change, negative = inhibition; 340,000 tested, 0.071% active; Snurportin-1 (Homo sapiens) + GTP-binding nuclear protein Ran (Homo sapiens) + Importin …; Biochemical FRET Rango-importin beta, RanGTP-induced dissociation; AID 540253, 2011; active means falling FRET ratio curve, often poorly fitted, with flat reads before Ran was added; inconclusive means other falling curves, or compound fluorescence or quenching; inactive means flat or rising ratio curve;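 also: potency is read from the fitted curve at half-maximal effect; % of control where 0% means no effect; nearly all actives have a fitted effect of over 45% in size; -100% = wells without RanGTP and RCC1; the record marks most hits as doubtful in a second field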
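FRET read at 45 min, room temperature: inhibitors block the CFP/YFP signal rise when RanGTP (0.6 uM Ran, 2 mM GTP, 0.2 uM RCC1) frees Rango (0.1 uM) from importin beta (0.25 uM). Pre-read after 5 min compound exposure flags interference.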
GLA inh pH 4.5: qHTS Assay for Inhibitors of Human alpha-Galactosidase at pH 4.5; Alpha-galactosidase A (Homo sapiens), P06280; purified enzyme, 4-MU-alpha-Gal fluorescence, pH 4.5; activity change, negative = inhibition, % at 105 µM; 230,000 tested, under 10 active; inconclusive = small, poorly fitted or top-dose-only inhibition, or a rising curve; inactive = flat fitted curve, though single readings scatter; no compound was filed as active;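 also: 0% = full activity with enzyme and -100% = basal without enzyme; dose as in the result columns while the protocol names 77 µM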
An asterisk follows results filed as active; ? = inconclusive; . = no result given; & = joins results of further samples; [ ] = dose if it differs, or a comment. This is a subset, so the mix of outcomes need not match the whole.

SMILES	Rango complex inh	miR-21 reporter	Rango release inh	GLA inh pH 4.5
CCCn1c(C2CCCN2c2nc(-c3cccc(Br)c3)cs2)nc2cc(Cl)c(Cl)cc21 (stereo unspecified)	-0.5%	0.6%	18.3%	.
CN1CCN(c2ccc(Cl)cc2NC(=O)C2COc3ccccc3O2)CC1 (stereo unspecified)	1.7%	-6.8%	16.1%	-1.0
Cc1ccc(-c2nc(NC(=O)c3ccc(S(=O)(=O)N(CCC#N)CCC#N)cc3)sc2-c2ccccc2)cc1	0.9%	0.2%	26.7%	0.7
CC1CCC(=C(C#N)C(=O)Nc2cccc(Cl)c2)CC1 (stereo unspecified)	-2.0%	-6.3%	-12.5%	-6.1
Cc1ccc(-c2nnn(CC(=O)N(c3cccc(F)c3)C(C(=O)NC(C)(C)C)c3ccco3)n2)o1 (stereo unspecified)	-2.9%	-12.2%	9.3%	-2.5
C=CCNS(=O)(=O)CC12CCC(CC1=O)C2(C)C (stereo unspecified)	1.8%	1.9%	5.7%	-1.2
O=C(COC(=O)CSc1ccc(F)cc1)NCCCc1ccccc1	1.1%	.	20.8%	.
Cc1ccc(S(=O)(=O)NNC(=O)c2cccnc2)cc1	-3.9%	-0.9%	2.5%	-15.1
O=C(CSc1ccc(-c2ccccn2)nn1)N1CCCc2ccccc21	0.4%	7.5%	4.5%	-3.8
Cc1ccsc1C1Nc2ccc3ncccc3c2C2=C1C(=O)CCC2 (stereo unspecified)	?	-11.3%	-19.7%	-0.4
C=CCn1c(SCC(=O)Nc2ccc(N3CCOCC3)cc2)nnc1-c1ccncc1	-2.8%	2.1%	-0.3%	.
O=c1[nH]c2cc3c(cc2cc1CN(CC1CCCO1)S(=O)(=O)c1ccccc1)OCCO3 (stereo unspecified)	-3.8%	-8.6%	-2.3%	4.2
CCOC(=O)C1C(=O)NC(N2CCCCC2)=NC1c1ccccc1 (stereo unspecified)	0.5%	-3.6%	-0.4%	0.9
O=C(NCC(=O)N1CCCC1)c1ccc(Cl)cc1	-0.2%	-23.9%	2.8%	.
Cc1c(NC(=O)CN2C(=O)C(=O)c3ccccc32)c(=O)n(-c2ccccc2)n1C	-0.6%	2.3%	-15.7%	1.4
Cc1ccc(NCc2nnc(SCC(=O)N3CCCc4ccccc43)o2)c(C)c1	2.1%	-4.1%	-10.1%	8.4
CCOc1ccc(NC(=O)c2ccccc2OC)cc1	-5.2%	-44.4%	15.5%	?
Cc1ccc(NC(=O)C2CCN(S(=O)(=O)c3c(C)n[nH]c3C)CC2)nc1	2.0%	-0.6%	-8.4%	7.1
CCCOC(=O)Nc1cc(OC)ccc1[N+](=O)[O-]	0.7%	-23.6%	0.5%	-5.1[21.1 µM]
CN(Cc1ccc(F)cc1)C(=O)c1ccc2c(c1)NC(=O)CS2	-2.5%	-4.9%	7.5%	-2.1

Arranged by count of non-hydrogen atoms (ascending): some entries from above.
SMILES	Rango complex inh	miR-21 reporter	Rango release inh	GLA inh pH 4.5
CCOc1ccc(NC(=O)c2ccccc2OC)cc1	-5.2%	-44.4%	15.5%	?
CCOC(=O)C1C(=O)NC(N2CCCCC2)=NC1c1ccccc1 (stereo unspecified)	0.5%	-3.6%	-0.4%	0.9
Cc1ccc(NC(=O)C2CCN(S(=O)(=O)c3c(C)n[nH]c3C)CC2)nc1	2.0%	-0.6%	-8.4%	7.1

Other results
SMILES	Rango complex inh	miR-21 reporter	Rango release inh	GLA inh pH 4.5
O=C(CSc1ccccn1)N1CCOCC1	-0.7%	-7.9%	-12.8%	4.0
CC(C)[C@H](NS(=O)(=O)c1ccccc1)C(=O)OCC(=O)NC(=O)NC1CCCCC1	0.9%	.	0.4%	.
O=C(OCc1nc2ccccc2[n+]([O-])c1C(=O)c1ccccc1)c1ccco1	-1.1%	-6.2%	-0.9%	-1.8
CN(C)C(=O)CCc1ccc2c3c([nH]c2c1)[C@]1(CCc2ccccc2)[C@@H](C(=O)N2CCCCC2)C[C@H](CC(=O)NC(C)(C)C)C(=O)N1CC3	1.7%	.	-0.1%	.
C(=N\Nc1nc(-c2ccccc2)cs1)/c1cccnc1	-2.1%	-29.4%	-6.3%	-4.4
Cc1cc(N2CCOCC2)n2nc(C)c(-c3ccccc3)c2n1	-3.6%	-7.9%	0.7%	5.7
COc1ccccc1Oc1ccc(-c2cnc3ccccc3n2)cc1[N+](=O)[O-]	-4.7%	-22.2%	-0.2%	-6.3
O=C1NC(=O)N(Cc2ccccc2F)C1=O	0.1%	-2.9%	-1.8%	.
CC(C)(C)OC(=O)N1CCC[C@H]1C(=O)OCC(=O)Nc1cc(S(C)(=O)=O)ccc1Cl	-2.0%	.	-1.7%	.
CC1CC(C(F)(F)F)n2ncnc2N1 (stereo unspecified)	-3.5%	1.3%	0.6%	-6.8
COc1ccc(Cl)cc1NC(=O)c1noc(C)c1[N+](=O)[O-]	-0.5%	18.8%	6.6%	.
Cc1[nH]nc(-c2ccc(OCc3cnn(-c4ccccc4)c3)cc2O)c1Oc1ccc(Cl)cc1	5.2%	21.8%	?	2.5
Cc1cc(Cl)c(S(=O)(=O)N2CC(C)OC(C)C2)cc1OCC(N)=O (stereo unspecified)	4.2%	-10.2%	-9.9%	-2.5
COCCN1C(=O)c2ccccc2C(C(=O)NCCCN2CCCC2=O)C1c1c[nH]c2ccccc12 (stereo unspecified)	0.8%	-2.4%	6.4%	1.5
O=C(O)CCCC(=O)Nc1ccccc1C(=O)N1CCCC1	-0.3%	-4.4%	-0.3%	-3.8
Cn1nnnc1SCCNCc1ccncc1	8.3%	-3.3%	-2.7%	0.1
O=C(CSc1nnc(-c2ccncc2)o1)Nc1ccccc1C(F)(F)F	-2.1%	2.7%	-15.5%	.
COc1cc2ccccc2cc1C(=O)NC(=S)Nc1cc(C(=O)O)ccc1C	-2.7%	-0.2%	-3.9%	-2.7
COc1ccc(-c2csc(-n3ncc(-c4cccs4)c3N)n2)cc1	5.6%	-5.8%	-13.8%	1.2
CC(=O)c1sc(NC(=O)C2CCCN2S(=O)(=O)c2ccccc2F)nc1C (stereo unspecified)	-6.0%	.	-10.1%	.
O=C(CN1CCOCC1)Nc1ccc(NC(=O)c2ccccc2F)cc1	0.2%	-6.5%	-2.8%	.
O=C(CSCc1ccccc1Br)NNC(=S)NCc1ccco1	0.5%	-1.4%	1.0%	.
Cc1ccsc1/C=N/NC(=O)CSCc1ccc(Cl)cc1	-0.9%	-1.7%	11.9%	-3.5
Cc1cc(O)ccc1N1C(=O)c2cccc3cc([N+](=O)[O-])cc(c23)C1=O	-1.1%	-0.9%	28.6%	-11.5
CCN(CC(=O)N1CCCC1)S(=O)(=O)c1cc(C)ccc1OC	2.0%	8.2%	-0.1%	.
COc1ccc(CCn2c(C3CCCCC3)nc3c(c(=O)c4ccccc4n3C)c2=O)cc1	-0.3%	4.7%	-10.0%	0.8
CC(C)(C)NC(=O)NC(=O)CSc1nncs1	-0.3%	-0.3%	-0.2%	1.8
Clc1ccc(-n2nnc(-c3ncc[nH]3)n2)cc1Cl	0.8%	.	3.7%	.
COc1ccc(C(=O)NCc2ccco2)cc1S(=O)(=O)N1CCOCC1	-0.4%	11.5%	-1.4%	.
CCCn1c(Nc2nc3ccccc3n2C)nc2ccccc21	-1.2%	-8.9%	-0.7%	-2.4
COC(=O)CCCC1=CC2=CC(=O)C(C)(OC(=O)c3cccs3)C(=O)C2=CN1C1CCCCC1 (stereo unspecified)	2.9%	4.6%	-5.9%	3.7&-6.3
CC(=O)Nc1cccc(-c2cn3ccccc3n2)c1	5.0%	-28.6%	9.7%	7.3
CC(=O)N1CCN(CC(C)(C)NS(=O)(=O)c2ccc(C)cc2)CC1	-0.3%	-0.3%	-4.3%	.
COC(=O)CSc1nc(NCC(C)C)nc(N2CCOCC2)n1	-0.5%	-1.4%	7.1%	-7.8
Cc1ccc(-c2csc(N(CCCN3CCOCC3)C(=O)c3ccco3)n2)cc1	2.2%	18.1%	5.0%	-6.7
O=C(CCC(=O)OCC(=O)c1cccc([N+](=O)[O-])c1)Nc1cccc(Cl)c1Cl	-0.1%	-2.2%	0.7%	5.2
O=S(=O)(c1ccc(Cl)cc1)N1CCN(c2ncccn2)CC1	6.9%	-0.8%	24.8%	4.5
CCOc1ccc(NCc2cccn2-c2nnc(N3CCC(C(=O)NCCCN4CCCCC4C)CC3)s2)cc1 (stereo unspecified)	-2.0%	-15.2%	12.0%	.
CCOc1ccccc1N(CC(=O)NC1CCCCC1)C(=O)CCC(=O)Nc1nccs1	3.1%	-3.2%	-1.5%	.
COC(=O)c1ccc(NC(=O)CN2CCOCC2)cc1	3.2%	-7.8%	6.8%	0.3
Cc1cc(C)n(C(=O)CCCC(=O)n2nc(C)cc2C)n1	1.9%	-2.6%	-7.5%	-2.6
O=C(O)/C=C/C(=O)N1N=C(c2ccco2)CC1c1ccco1 (stereo unspecified)	-2.6%	-7.3%	-4.0%	.
O=C(Nc1cccc(-c2cn3ccccc3n2)c1)c1cnccn1	-0.2%	-13.1%	-11.6%	-6.6
Cc1cccc2sc(N(CCCN(C)C)C(=O)c3ccc(S(=O)(=O)N4CCc5ccccc5C4)cc3)nc12	-1.7%	-7.3%	-2.8%	.
CCn1ccnc1CN1CCCC(CO)(Cc2cccc(OC)c2)C1 (stereo unspecified)	2.7%	-1.9%	?	4.5
NC(=O)OCC(O)COc1ccc(Cl)cc1 (stereo unspecified)	-2.4%	.	9.1%	.
CCCn1nnnc1NCc1cccc(OC)c1OCC	-0.9%	1.2%	-4.9%	.
COc1ccc(NC(=O)c2ccc(OCC3CCCO3)cc2)cc1OC (stereo unspecified)	0.6%	.	-6.1%	.
C[C@@H]1CCC(=O)N(CC[C@H](Oc2ccccc2)c2ccccc2)CC1	0.1%	-1.1%	6.4%	.
COc1ccc(-c2n[nH]c(=S)n2-c2ccccc2C)cc1OC	-4.0%	-13.7%	-7.2%	.

The results go on.
SMILES	Rango complex inh	miR-21 reporter	Rango release inh	GLA inh pH 4.5
COc1ccc(N2CCN(C(=O)c3ccc(CNS(=O)(=O)c4ccc(C)cc4)cc3)CC2)cc1	0.4%	4.8%	3.5%	.
Cc1ccc(C)c(OCCC(=O)OCC(=O)Nc2cccnc2Cl)c1	-0.3%	.	-9.0%	.
COc1cccc(CC2(CO)CCCN(Cc3ccc(OC(F)F)cc3)C2)c1 (stereo unspecified)	-5.1%	.	0.4%	.
O=C(C[n+]1ccccc1)N/N=C/c1ccccc1Cl	2.7%	.	15.4%	.
O=C(Nn1cnc2ccccc2c1=O)c1ccccc1	-1.0%	-18.9%	-0.7%	-1.6
COc1ccc(-c2nnc(NC(=O)c3ccc(S(=O)(=O)N4CCCc5ccccc54)cc3)o2)cc1	0.4%	-3.8%	15.7%	-5.7
CCn1c(SCC(=O)Nc2nnc(C)s2)nnc1C(C)NC(=O)c1ccccc1 (stereo unspecified)	5.8%	-0.2%	-0.1%	.
O=C(Nc1ccc(NC(=O)C2CC2)nc1)c1cccnc1	5.1%	-1.0%	-9.3%	-1.7
CSCc1cc(N2CCCC2)nc(-c2ccccc2)n1	-2.0%	0.2%	8.9%	-15.0
CC(=O)Nc1ccc(OCC(O)CNC2CCCC2)cc1 (stereo unspecified)	5.5%	-15.3%	6.6%	-0.3
Cn1c(=O)oc2cc(S(=O)(=O)NCCc3ccccc3)ccc21	1.1%	-8.4%	35.6%	1.8
COc1ccc(NC2CCCN(C(=O)CSc3ccccc3)C2)cc1 (stereo unspecified)	-2.9%	-2.0%	-5.7%	.
COC(=O)CSc1nc2c(cnn2-c2ccc(F)cc2)c(=O)[nH]1	-3.6%	-2.5%&-1.0%	0.5%	.
O=C(Nc1ccc(-c2ccccc2)cc1)c1ccccc1	-0.1%	6.6%	4.9%	.
O=C(NCC1CCCN1S(=O)(=O)c1ccccc1)C(=O)NC1CC1 (stereo unspecified)	7.1%	.	26.9%	.
COc1ccccc1CNS(=O)(=O)c1ccc(-c2cnc(C3CC3)o2)cc1	-0.2%	17.2%&25.6%	-13.0%	.
